High-throughput results (PubChem BioAssay)
VDR inhibitor: inhibitors of human vitamin D receptor; P11473; VDR-SRC2-3 peptide fluorescence polarization, 2 h; Potency, µM, without a hit: max response, negative = inhibition, hits mostly inhibitors; 400,000 tested, 0.93% active; active = well fitted inhibition curve with a large enough effect; inconclusive = small, poorly fitted or top-dose-only effect, or another doubt; inactive = no such curve, though single readings can be large or run the other way; note: series mostly up to about 120 µM
Target sequence (P11473 whole entry, looked up): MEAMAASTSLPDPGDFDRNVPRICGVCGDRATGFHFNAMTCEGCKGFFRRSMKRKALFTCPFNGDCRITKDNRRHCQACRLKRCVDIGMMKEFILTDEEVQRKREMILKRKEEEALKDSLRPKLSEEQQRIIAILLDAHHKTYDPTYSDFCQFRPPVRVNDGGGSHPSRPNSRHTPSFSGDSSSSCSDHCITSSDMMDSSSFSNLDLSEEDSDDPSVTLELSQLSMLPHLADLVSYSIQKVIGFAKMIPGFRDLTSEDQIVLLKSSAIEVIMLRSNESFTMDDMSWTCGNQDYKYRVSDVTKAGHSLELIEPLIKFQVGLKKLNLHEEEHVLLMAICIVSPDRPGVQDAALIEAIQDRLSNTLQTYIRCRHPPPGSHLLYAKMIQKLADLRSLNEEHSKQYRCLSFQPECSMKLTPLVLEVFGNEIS
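Inhibition of the VDR/SRC2-3 peptide interaction is quantified by fluorescence polarization. Compounds (23 nl, pintool) incubate with the reagents for 2 hours at ambient room temperature.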
An asterisk follows results filed as active; ? = inconclusive; & = joins results of further samples. % is set by controls: 0 for no effect and ±100 for the full control effect; potency is the fitted concentration of half-maximal effect. Not all compounds are listed, so the mix of outcomes need not match the whole.

SMILES,VDR inhibitor
C=C1C(=O)C23CCC4C(C)(C(=O)OC)CCCC4(C)C2CCC1(O)C3 (configuration not stated),?
O=C(Nc1ccc(Br)cn1)c1ccc(COc2c(F)c(F)cc(F)c2F)o1,14%
O=C(/C=C/c1ccc(Br)cc1)Nc1ccc(S(=O)(=O)Nc2ncccn2)cc1,12%
COc1ccc(N2CCN(C(=O)c3sc4nc(-c5ccc(F)cc5)cn4c3C)CC2)cc1,6%
CCOC(=O)C(O)(CC(=O)c1ccc(Cl)cc1)C(=O)OCC,-16%
CC1CCN(c2nc3c(c(=O)n(C)c(=O)n3C)n2CCSc2nc3ccccc3s2)CC1,10%
Cc1ccc(NC(=O)CN2C(=O)N/C(=C/c3ccco3)C2=O)cc1,-1%
Cc1cc(C)c(NC(=O)CO/N=C2\CCCc3nonc32)c(C)c1,3%
CC(C)(C)c1ccc(C(=O)N2CCN(Cc3cc(=O)n4nc(-c5ccccc5F)sc4n3)CC2)cc1,4%
Cc1cc(C(=O)NC(=S)Nc2cccc(C(=O)O)c2C)ccc1[N+](=O)[O-],16%
Cc1cccc(C(=O)OCC(=O)N2CC(C)OC(C)C2)c1C (configuration not stated),-1%
Cn1cnnc1Sc1ccc(S(C)(=O)=O)cc1[N+](=O)[O-],-2%
Cn1c(/C(C#N)=C/C2CC=CCC2)nc2ccccc21 (configuration not stated),?
COc1ccccc1C(=O)NC(CCSC)C(=O)N1CCN(C/C=C/c2ccccc2)CC1 (configuration not stated),-5%
Cc1cc(C(=O)Nc2ccc3ccccc3c2)oc1C,13%
O=C(NCc1ccco1)c1ccc2nccnc2c1,-11%
Cc1cccc(-c2nc(SCCCOc3ccccc3Cl)n3[nH]c(=O)cc3n2)c1,10%
Cc1sc2nc(CN3CCCCC3)nc(Cl)c2c1C,-4%
Cc1cccn2c(=O)c3cc(C#N)c(=O)n(-c4nnc(SCc5ccc(Cl)cc5)s4)c3nc12,8%
CCc1c(C)sc(NC(=O)C2c3ccccc3Oc3ccccc32)c1C(=O)OC(C)C,-13%
COc1cc(C(=O)NNC(=O)NC2CCCCC2)cc(OC)c1OC,-15%
Cc1ccccc1C(=O)Nc1cccc(OCc2cc(=O)n3cccc(C)c3n2)c1,1%
CCOc1ccc(N2CC(O)Cn3c2nc2c3c(=O)n(CCCc3ccccc3)c(=O)n2C)cc1 (configuration not stated),-7%
COc1ccc(NC(=O)Oc2ccccc2)cc1Cl,-2%
Cc1nc2ccn(Cc3cccs3)c(=O)c2cc1C(=O)N1CCN(c2ccccc2F)CC1,-5%

Pulled one by one from above:
SMILES,VDR inhibitor
COc1ccc(N2CCN(C(=O)c3sc4nc(-c5ccc(F)cc5)cn4c3C)CC2)cc1,6%
CC1CCN(c2nc3c(c(=O)n(C)c(=O)n3C)n2CCSc2nc3ccccc3s2)CC1,10%
Cc1cccc(-c2nc(SCCCOc3ccccc3Cl)n3[nH]c(=O)cc3n2)c1,10%
COc1ccccc1C(=O)NC(CCSC)C(=O)N1CCN(C/C=C/c2ccccc2)CC1 (configuration not stated),-5%
O=C(/C=C/c1ccc(Br)cc1)Nc1ccc(S(=O)(=O)Nc2ncccn2)cc1,12%

Next structures follow:
SMILES,VDR inhibitor
O=C(Nc1cccc(Cl)c1)c1cc([N+](=O)[O-])ccc1N1CCN(CCO)CC1,-6%
CCc1ccc(C(=O)Nc2cc(C)on2)o1,27%
C/C(=N\NC(=O)c1cccnc1)c1cccc([N+](=O)[O-])c1,6%
COc1cc(Cl)c(S(=O)(=O)NCCCn2ccnc2)cc1Cl,-18%
Cc1cc(-c2nnc(-c3cccc(C(F)(F)F)c3)o2)no1,5%
O=C(c1cc(S(=O)(=O)N2CCCCC2)ccc1Cl)N1CCOCC1,-28%
Cc1nc2ccccc2c2oc(C(=O)N3CCCC(C)C3)cc12 (configuration not stated),-8%
O=C(CCCOc1ccc(Cl)cc1)NCCc1ccccc1,5%
N#Cc1ccc(-c2ccc(OCC(=O)NN=Cc3ccncc3)cc2)cc1,-5%
O=C(Cc1ccccc1)Nc1ccc(NC(=O)c2cccs2)c(Cl)c1,-11%
Cc1nnc(NC(=O)CSc2nccn2-c2ccc(F)cc2)s1,-9%
CCOC(=O)c1sc2cccc(Cl)c2c1N,-1%
Cc1ccc(S(=O)(=O)Nc2ccccc2F)cc1C(=O)NNC(=O)c1csc(N2CCOCC2)n1,-19%
CCc1ccc(C2=NN(CCC(=O)NCCc3ccc(OC)c(OC)c3)C(=O)CC2)cc1,2%
NC(N)=NCCC[C@H](N)C(=O)NCC(=O)N[C@@H](CC(=O)O)C(=O)N[C@@H](CO)C(=O)O,9%
CC(C)c1nnc(N2C(=O)c3oc4ccccc4c(=O)c3C2c2cccc(O)c2)s1 (configuration not stated),-14%
Cc1nnc(SCC(=O)N2c3ccccc3C(C)(c3ccc(Cl)cc3)CC2(C)C)s1 (configuration not stated),0%
Cc1nc2c(C(=O)O)cnn2c(C)c1Cc1ccccc1F,-6%
CCC(NC(=O)CC[C@H]1O[C@@H](n2cc(C)c(=O)[nH]c2=O)C[C@@H]1O)c1ccccc1 (some centres not stated),14%
CCOC(=O)N1CCN(C(=O)C2CC(=O)N(Cc3ccc(OC)cc3)C2)CC1 (configuration not stated),21%
O=S(=O)(Nc1ccc2c(c1)OCCO2)c1cccc2cccnc12,4%
Cc1cc(-c2ccccc2)c(C#N)c(SCC(N)=O)n1,-4%
CCN(C[C@H]1N[C@@](Cc2ccccc2)(C(=O)OC)[C@H]2C(=O)N(C)C(=O)[C@@H]12)C(C)=O,6%
CC(=O)Nc1ccc(NC(=O)CSc2ncnn2-c2ccccc2)cc1,7%
CCN1C(=O)/C(=C/N(C(C)=O)c2ccccc2)N(c2ccccc2)C1=S,?

2 entries from above, as labelled records.
smiles: Cc1cc(-c2nnc(-c3cccc(C(F)(F)F)c3)o2)no1
  VDR inhibitor: 5%
smiles: O=C(c1cc(S(=O)(=O)N2CCCCC2)ccc1Cl)N1CCOCC1
  VDR inhibitor: -28%

Other results
SMILES,VDR inhibitor
Cc1csc(NC(=O)CSc2nc(=O)n(CCCN(C)C)c3c2CCC3)n1,4%
Cc1ccc(-n2c(=O)c3c(cnn3C)n(CC(=O)Nc3c(C)cccc3C)c2=O)cc1,-10%
COc1ccc(S(=O)(=O)N2CCN(CC(=O)N3c4ccccc4CC3C)CC2)cc1OC (configuration not stated),6%
CCN(CCCNC(=O)C1CCN(S(=O)(=O)N2CCC3(CC2)OCCO3)CC1)c1ccccc1,-9%
CCOc1ccc(NC(=O)C2C(C(=O)O)C3(Cl)C(Cl)=C(Cl)C2(Cl)C3(Cl)Cl)cc1 (configuration not stated),-7%
COc1ccc(NC(=O)N2CCN(C(=O)C(Cc3ccc(F)cc3)NC(C)=O)CC2)cc1 (configuration not stated),6%
COc1ccccc1N(CC(O)COc1ccc(C)cc1)S(=O)(=O)c1ccccc1 (configuration not stated),-7%
Cc1onc(-c2ccccc2Cl)c1C(=O)NNC(=O)c1nn(C)cc1Cl,-13%
Cc1cc(C=O)sc1[B-](F)(F)F,-5%
NC(=O)COC(=O)c1cccc2c1-c1ccccc1C2=O,0%
O=C(NC(=S)Nc1cc([N+](=O)[O-])ccc1O)c1cccnc1,-11%
O=C(CNC(=O)c1cc(Cl)cc([N+](=O)[O-])c1)NC1CC1,4%
CC(C)CNC(=O)COc1ccccc1[N+](=O)[O-],-9%
COc1ccccc1CN(C)CC(=O)Nc1ccccc1-c1ccccc1,-11%
CCOc1ccc(CCNc2nc3ccccc3n3c(C)nnc23)cc1OCC,7%&21%
Cc1ccc(Nc2nnc(SC(C)C(=O)Nc3c(C)n(C)n(-c4ccccc4)c3=O)s2)cc1 (configuration not stated),-2%
COc1ccc(CN2C(=O)c3cccnc3C2Nc2cc(Cl)ccc2OC)cc1 (configuration not stated),4%
COc1cccc(NC(=S)N(CCc2c(C)[nH]c3ccccc23)Cc2ccco2)c1,-27%
COC(=O)c1cc(Br)c(=O)n(Cc2ccc(C(=O)O)cc2)c1,-25%
COc1ccc(-c2cn3c(C)c(C(=O)N4CCN(c5ccccc5)CC4)sc3n2)cc1,-3%
Cc1noc(C)c1C(=O)N1CCN(c2ncccn2)CC1,15%
O=c1[nH]c(CSc2nnc(-c3cccnc3)n2C2CCCCC2)nc2ccccc12,-13%
CCCCc1ccc(-n2nc3cc(C)c(NC(=O)Cc4ccccc4)cc3n2)cc1,-3%
CC(=O)N1CCc2cc(S(=O)(=O)CCC(=O)Nc3ccc4c(c3)OCCO4)ccc21,-14%
CCOc1ccc(NC(=O)C2CC(=O)N(c3ccc4c(c3)OCCO4)C2)cc1OCC (configuration not stated),-10%
O=C(/C=C/c1ccccc1)N1CCN(c2cccc(Cl)n2)CC1,-9%
COc1ccc(-c2[nH]ncc2C(=O)NCc2ccccc2C)cc1,1%
Cc1ccc(S(=O)(=O)N2CCN(Cc3cccc(F)c3)CC2)cc1,13%
O=C(CSc1nnc(CNC(=O)c2c(F)cccc2F)o1)NCc1ccc(F)cc1,-15%
Oc1cccc(/C=N/NC(=S)Nc2cccnc2)c1O,0%
Cc1ccc2c(CC(=O)NCC3(N4CCOCC4)CCCCC3)coc2c1C,21%
c1csc(-c2noc(CN3CCc4sccc4C3)n2)c1,-14%
COc1ccc(C(=O)OCC(=O)Nc2nnc(-c3ccccc3)o2)cc1,16%
COc1ccc(/C=N/NC(=O)c2cccc(Br)c2)cc1CSc1ccccn1,18%
Cc1cc(OCCN2CCCCC2)nc2ccccc12,-4%
COc1ccc(OC)c(CN2CCN(C(=O)[C@@H](NC(=O)c3cccc(C)c3)C(C)C)CC2)c1,-3%
CCOC(=O)N1CCC(n2c(SCC(=O)N3CCCC3)nc3ccccc3c2=O)CC1,21%
CC(C)c1nc(SCC(=O)NCc2ccccc2)n[nH]1,11%
CCOC(=O)c1ccc(NC(=O)c2cc3c(C)nn(-c4ccccc4Cl)c3s2)s1,-5%
CCOP(=O)(OCC)c1ccccc1OCP(C)(=O)COc1ccccc1P(=O)(OCC)OCC,-12%
Cc1ccc(NC(=O)CCCN2C(=O)COc3ccc(C)cc32)c(C)c1,4%
CC(=O)NC(CC(=O)O)c1ccc(F)cc1 (configuration not stated),1%
N#C/C(=C/c1ccc(N2CCOCC2)o1)C(=O)Nc1ccccc1,17%
Cc1cc2n(n1)CCC(=O)N2Cc1ccc(C(=O)Nc2ccc(F)cc2F)cc1,2%
COc1ccccc1N1CCN(Cc2cc(=O)n3ccsc3n2)CC1,11%
Cc1cc(N2CCOCC2)nc2ccc(NC(=S)NCCN(C)C)cc12,-10%
COc1ccc(N2CCN(c3ccc4nnc(CCC(=O)Nc5ccc(C)cc5)n4n3)CC2)cc1,-27%
CC(=O)Nc1ccc(S(=O)(=O)Nc2cc(-c3ccccc3)nn2C)cc1,8%
CC(Sc1nnc(N)s1)C(=O)NC1CCCCC1C (configuration not stated),-7%
CCOC(=O)C1CCN(C(=O)c2ccc(CNS(=O)(=O)c3ccc(OC)cc3)cc2)CC1,-17%

Next part
SMILES,VDR inhibitor
COc1ccc(CN=C2NC(=O)CC(C(=O)Nc3cc(C)cc(C)c3)S2)cc1 (configuration not stated),-21%
C=CCc1ccccc1OCCSc1nc(-c2cccs2)nc2cc(=O)[nH]n12,12%
Cc1cc(Cl)ccc1Oc1ncnc2oc(-c3ccccc3)cc12,6%
Cc1nn(-c2ccccc2)c(C)c1NC(=O)COC(=O)CC(C)c1ccccc1 (configuration not stated),6%
COc1cc(/C=C/C(=O)O)ccc1OS(=O)(=O)c1c(C)cc(C)cc1C,12%
CCn1cc(C(=O)N2CCOCC2)c(=O)c2cc(S(=O)(=O)N(C)C3CCCCC3)ccc21,3%
COc1ccc2cc3c(N)nn(C(=O)c4ccc(F)cc4Cl)c3nc2c1,-13%
O=C(CCCn1c(=S)[nH]c2ccc(Br)cc2c1=O)NCc1ccccn1,2%
Cc1cc(Cl)ccc1NC(=S)NCCN1CCOCC1,-2%
CCn1cc(CN2CCN(Cc3ccccc3)C(CCO)C2)c2ccccc21 (configuration not stated),-1%
O=C(NCc1ccccc1)c1ccc2c(c1)C(=O)N(Cc1ccncc1)C2=O,-8%
Cn1c(N)c(C(=O)COC(=O)c2cc(S(=O)(=O)N3CCOCC3)ccc2F)c(=O)n(C)c1=O,-13%
COc1cc(C(=O)NC2CCCC2)c(Br)c(OC)c1OC,9%
O/N=C1/CCCCC1c1ccccn1 (configuration not stated),16%
Cc1ccccc1OCCCCn1nnc2sc3c(c2c1=O)CCC(C)C3 (configuration not stated),11%
O=C(NCCCN1CCCC1=O)C1CCN(S(=O)(=O)c2cc(C(F)(F)F)ccc2Cl)CC1,1%
CC(C)[C@H](NC(=O)c1ccccc1)C(=O)OCC(=O)Nc1ccc(Cl)cc1C(F)(F)F,-14%
COc1ccc2[nH]cc(CCNc3nc(-c4ccccc4OC)nc4ccccc34)c2c1,3%
O=C(CSc1ncn[nH]1)N1CCN(S(=O)(=O)c2ccccc2)CC1,-14%
CC(C)Cc1cc(C(=O)NCc2ccco2)no1,-8%
CC(=O)CCOC1CCCCO1 (configuration not stated),-3%
O=C(c1ccc(Sc2ccc(F)cc2)c([N+](=O)[O-])c1)N1CCOCC1,-14%
CN(C)/C=C/C(=O)c1cccc(C(F)(F)F)c1,-1%
COCCn1c(SCC(=O)NNC(=O)c2cc(Cl)ccc2OC)nnc1-c1ccncc1,-13%
